Assay outcomes deposited in PubChem BioAssay by several laboratories.
ALR inh: human ALR oxidase inhibition via reduced H2O2. P55789. purified ALR, DTT oxidation, H2O2 HRP-luminol luminescence. inhibition, % (concentration not given with the values). actives 3.8% (n = 290,000);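 active means mean and each replicate at 75% or more; inconclusive means only one of the two met; inactive means neither met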;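 further: stock transfer was 7.5 nL into about 7.5 µL; 0% = neutral wells and 100% = wells with inactivated enzyme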
Target sequence (P55789 whole entry, looked up): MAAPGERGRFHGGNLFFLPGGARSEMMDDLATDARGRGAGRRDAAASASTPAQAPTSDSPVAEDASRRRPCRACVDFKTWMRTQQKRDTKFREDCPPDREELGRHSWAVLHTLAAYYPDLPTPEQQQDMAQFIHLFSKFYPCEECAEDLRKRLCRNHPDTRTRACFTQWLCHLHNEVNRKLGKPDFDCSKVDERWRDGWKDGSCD
AF4-AF9 inh: inhibitors of human MLL-AF4/AF9 interaction; P42568; AlphaScreen, biotin-AF4 peptide binding to FLAG-AF9; inhibition, % at 10 µM; actives 0.47% (n = 350,000);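 active means every replicate reaching a set inhibition limit, whatever the replicate mean, cut at about 25% in these data; inconclusive means mean inhibition reaches that limit but some replicates miss it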;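 further: 0% = plate neutral control median and 100% = total signal loss; the record names both 10 and 1 µM as test concentration; the first replicate is given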
Vif TR-FRET: inhibitors of Vif binding to APOBEC3G peptide, primary screen, biochemical, TR-FRET, GST-Vif 1-94, biotin-A3G peptide, dose response retest (AID 1117319) | TR-FRET GST-Vif / biotin-A3G peptide binding; higher % means a stronger effect; test concentration not given here; strong numbers were not always called active | inhibition, %, or IC50 in µM where a hit was titrated | actives 0.57% (n = 260,000);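 active means above the screen mean plus three standard deviations and confirmed in dose response; inconclusive means results disagree or hit not tested in dose response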;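 further: Vif residues 1-94 fused to GST binding biotinylated APOBEC3G peptide 110-148; 0% = full assay without inhibitor and 100% = GST in place of GST-Vif; retest series ran down from 100 µM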
Ecoli rRNA inh: selective bacterial rRNA inhibition in E. coli; E. coli WT GFP vs humanized-ribosome RFP mutants, fluorescence, 24 h; stronger effect = lower value; DMSO median 0, no signal -100; GFP signal change (wild-type ribosome), % (test concentration not listed); actives 1.6% (n = 350,000); AID 720706;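 active means significant combined selectivity score with lowered wild-type GFP, culture density cut under 30%, mutant RFP and density less affected; inactive means any of these conditions unmet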; further: one replicate is shown; some compounds called inactive have numbers as strong as hits
E coli growth: E. coli growth inhibition | actives 0.21% (n = 330,000) | Escherichia coli growth, OD600, 23 h; stronger effect = lower value | OD600 absorbance (no concentration beside the values);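 active means OD600 absorbance below the run mean of sample wells minus 3.6 SD, in any replicate, cut at about 0.56 in these data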;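 further: stock transfer was 300 nL into about 60 µL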
HNF4A DNA FP: change in binding of human HNF4 alpha to DNA | P41235 | HNF4a-FITC DNA binding, fluorescence polarization, 1 h | activity change, % at 10 µM | actives 0.3% (n = 360,000) | AID 1224865; in the data active means activity change above about 30%, passing the limit was not always enough;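 further: controls were the assay level and a saturating level of protein; the project sought stronger binding though the title names inhibitors; some compounds called inactive have numbers as strong as hits; positive values seem to mean higher polarization but the record does not say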
Target sequence (P41235 whole entry, looked up): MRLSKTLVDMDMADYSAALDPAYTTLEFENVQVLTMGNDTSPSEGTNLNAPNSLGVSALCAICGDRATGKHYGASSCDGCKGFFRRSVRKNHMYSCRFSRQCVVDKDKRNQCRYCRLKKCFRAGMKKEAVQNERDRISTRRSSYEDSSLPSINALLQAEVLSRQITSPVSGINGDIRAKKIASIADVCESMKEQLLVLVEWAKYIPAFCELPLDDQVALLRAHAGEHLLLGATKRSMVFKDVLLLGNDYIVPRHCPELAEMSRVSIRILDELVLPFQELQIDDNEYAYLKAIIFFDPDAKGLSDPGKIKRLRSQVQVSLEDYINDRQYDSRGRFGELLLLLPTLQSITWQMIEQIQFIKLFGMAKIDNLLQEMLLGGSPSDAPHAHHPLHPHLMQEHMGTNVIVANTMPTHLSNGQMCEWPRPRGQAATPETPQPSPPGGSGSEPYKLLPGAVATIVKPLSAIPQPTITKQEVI
FGF22 binding: shifts melting point of recombinant human FGF22. Q9HCT0. recombinant FGF22 thermal shift, SYPRO orange fluorescence; percent of sucrose octasulfate shift, DMSO zero. calls only at 9.99 µM. actives 1.5% (n = 340,000). AID 651658;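 active means melting point raised past a set limit in the mean and every replicate; inconclusive means no clear call; three in four hits are not shown here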
Target sequence (Q9HCT0 whole entry, looked up): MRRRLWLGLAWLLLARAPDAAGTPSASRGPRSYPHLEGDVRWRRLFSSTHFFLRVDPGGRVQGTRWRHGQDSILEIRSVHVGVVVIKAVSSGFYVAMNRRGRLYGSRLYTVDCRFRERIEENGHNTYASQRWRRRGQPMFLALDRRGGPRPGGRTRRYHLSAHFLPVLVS
Ecoli rRNA inh OD600: further read-out of Ecoli rRNA inh, marked with its call; OD600 change, %; measured here: OD600 growth;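 optical density of the mix in the first replicate; 0 = DMSO median and -100 = no signal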
Ecoli rRNA inh RFP: further read-out of Ecoli rRNA inh, marked with its call; RFP signal change, %; measured here: RFP humanized mutant strains;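 first replicate; 0 = DMSO median and -100 = no signal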
Starred values were filed as active, the others as inactive; i = inactive; ? = inconclusive; · = no result given; & = joins results of further samples. The list is partial (hit frequency here may not be typical).

SMILES	ALR inh	AF4-AF9 inh	Vif TR-FRET	Ecoli rRNA inh	Ecoli rRNA inh OD600	Ecoli rRNA inh RFP	E coli growth	HNF4A DNA FP	FGF22 binding
CC(=O)N(C)/C=C1\Sc2ccccc2C1=O	-15	·	1%	·	·	·	0.78	6.6	·
O=C(Nc1ccc2c(c1)OCCO2)C(C1CC1)n1c(=O)c(-c2ccccc2)nc2ccccc21 (centres undefined)	·	8.6	·	6	6	4.0	·	-1.9	i
O=C(Nc1ccc(N2CCOCC2)c(Cl)c1)c1ccc2c(c1)OCCO2	-4	-2.0	·	3	5	0.9	0.63	-3.2	·
O=C(NCC(c1ccco1)N1CCN(c2ccc(F)cc2)CC1)C(=O)NC1CC1 (centres undefined)	6	-0.6	0%	10	8	0.7	0.69	-0.8	i
C=CCNC(=S)NNC(=O)c1ccc(OCCCC)cc1	7	·	9%	4	9	-2.3	0.71	-2.1	·
N#C[C@H]1[C@@H](c2ccc(C3=CCCC3)cc2)[C@H](CO)N1C(=O)NC1CCCC1	·	-3.0	·	4	-23	2.7	·	·	i
C[C@@H]1CN([C@@H](C)CO)C(=O)c2cc(NS(C)(=O)=O)ccc2O[C@@H](C)CCCCO[C@H]1CN(C)C(=O)CCCN(C)C	·	-5.4	·	2	13	0.3	·	·	i
O=C(CCNc1ccc(F)cc1)c1cccc([N+](=O)[O-])c1	17	·	15%	·	·	·	0.7	-4.8	·
O=C(Nc1nc(-c2ccc(Cl)s2)cs1)c1ccncc1	·	-6.0	0%	-10	6	6.6	0.71	-0.4	i
O=C(CN1CCOCC1)NCC[C@H]1CC[C@H](NC(=O)Nc2ccccc2)[C@@H](CO)O1	·	-2.1	·	2	4	-1.5	·	·	i
Fc1ccc(-c2cc(C(F)(F)F)nc(NCC3CCCO3)n2)cc1 (centres undefined)	2	·	-10%	·	·	·	0.78	0.3	·
COC(=O)c1cc(C(=O)OCC(=O)NC2CCCCCCC2)cc([N+](=O)[O-])c1	·	1.6	·	-11	-4	-0.3	0.69	-2.8	i
COc1ccc(CNC(=O)C2CCN(S(=O)(=O)c3ccc4c(c3)CC(C)N4C(=O)C3CC3)CC2)cc1 (centres undefined)	0	-0.4	·	6	-2	2.3	0.71	-1.8	i
COc1ccc(OC)c(CN2CCCC(CCC(=O)N(C)CCc3ccccn3)C2)c1 (centres undefined)	2	2.7	-6%	19	18	4.6	0.68	3.8	i
COc1ccc(C(=O)NNC(=O)CSc2nnc(-c3cccnc3)n2C)cc1	-2	0.5	-10%	7	-5	-0.9	0.64	2.6	i
COc1ccc(S(=O)(=O)N2C[C@@H](O)COC[C@H]3O[C@@H](CC(=O)NCCCN4CCOCC4)CC[C@@H]32)cc1	·	-1.4	·	3	1	-3.9	·	·	i
CC1(CCc2ccccc2)NC(=O)N(CC(=O)O)C1=O (centres undefined)	-2	-23	10%	11	8	-2.5	0.71	1.4	i
O=C(CCN1C(=O)NC2(CCCC2)C1=O)Nc1ccc(-c2nc3ccccc3s2)cc1	·	-0.9	-3%	-12	-15	10.0	0.68	26	·
O=C1c2cccnc2C(Nc2ccc(Br)cc2Br)N1Cc1cccs1 (centres undefined)	-7	·	3%	·	·	·	0.73	·	·
Cc1noc(C)c1S(=O)(=O)Nc1ccc(C(=O)Nc2ccc(OC(F)(F)F)cc2)cc1	-2	-1.5	·	-51	-77	-10	0.68	0.5	i
CCc1nc(SCc2ccc(C(=O)OC)o2)c2c(=O)n(C)c(=O)n(C)c2n1	-9	5.8	6%	-2	2	0.8	0.8	-2.9	i
Cc1noc(C)c1S(=O)(=O)Nc1ccc2c(c1)C(=O)N([C@@H](C)CO)C[C@@H](C)[C@@H](CN(C)C(=O)Nc1ccccc1)O2	·	-0.7	·	2	5	-0.3	·	·	i
Clc1ccc(-c2ccc(CNCc3ccccn3)o2)cc1	·	-14	·	-23	-21	-3.4	0.65	3.4	i
Cc1ccc(C(=O)NCN2CCN(c3ccccc3)CC2)cc1	·	-6.7	-2%	5	4	-2.1	0.7	-1.4	i
O=C(CN(Cc1ccccc1Cl)C(=O)Cn1nnc(-c2cccs2)n1)NCC1CCCO1 (centres undefined)	-9	3.5	-2%	-18	-8	-1.2	0.68	0.7	i
Next part.
SMILES	ALR inh	AF4-AF9 inh	Vif TR-FRET	Ecoli rRNA inh	Ecoli rRNA inh OD600	Ecoli rRNA inh RFP	E coli growth	HNF4A DNA FP	FGF22 binding
O=C(NCCCN1CCOCC1)c1cc(-c2cccc(Br)c2)nc2ccccc12	-11	-5.0	-6%	33	23	7.9	0.65	5.0	i
C[C@H](CO)N1C[C@H](C)[C@@H](CN(C)S(C)(=O)=O)Oc2c(NC(=O)Nc3ccc(C(F)(F)F)cc3)cccc2C1=O	·	-1.0&-8.1	·	-3&-6	-9&-8	0.3&-8.0	·	-3.6	i
O=C(COc1coc(CN2CCN(c3ccc(F)cc3)CC2)cc1=O)Nc1ccccc1	-3	-3.8	·	10	2	-0.9	0.71	2.4	i
Cc1c(C(=O)O)cccc1-c1ccc(/C=C2/NC(=O)N(c3ccccc3)C2=O)o1	46	-1.1	18%	-8	-5	-2.9	0.68	-2.4	i
Cc1ccc(NC(=O)CN(C)C(=O)CCC(=O)N2CCOCC2)cc1	-7	-0.7	-1%	5	19	-0.8	0.7	-0.6	i
COC(=O)c1ccc(-c2noc(CN3C[C@H]4CC[C@H]3C4)n2)cc1	-3	0.9	4%	-5	4	-4.6	0.7	-3.1	i
CCn1c(CSc2nncn2-c2ccc(OC)cc2)nc2cc(S(=O)(=O)N(C)C)ccc21	-15	·	5%	·	·	·	0.66	-1.5	·
Cc1ccc(-c2n[nH]c(S(C)(=O)=O)c2C#N)cc1	-3	·	-12%	-21*	9.0*	-3.3*	0.63	3.0	i
O=C(NNC(=O)c1ccc2ccccc2c1)c1cccc(Br)c1	·	-4.2	-10%	1	10	-1.7	0.71	0.4	·
CC1=C(CC(=O)O)c2cc(F)ccc2/C1=C/c1ccc(S(C)=O)cc1 (centres undefined)	-15	4.0	·	·	·	·	·	1.4	i
C[C@H](CO)N1C[C@H](C)[C@H](CN(C)C(=O)Nc2ccc(C(F)(F)F)cc2)Oc2c(NS(=O)(=O)c3ccc(F)cc3)cccc2C1=O	·	0.5	·	-1	-5	1.6	·	·	i
CCOC(=O)C1CCN(CC(=O)NC(=O)NC2CCCCC2)CC1	4	-1.3	0%	12	11	0.0	0.7	2.5	·
COc1ccc(S(=O)(=O)N2CCOC2CNC(=O)C(=O)NCCc2ccc(S(N)(=O)=O)cc2)cc1 (centres undefined)	-8	-9.5	·	3	4	-4.2	0.79	1.4	i
CCn1c(SCC(=O)Nc2ccc(C)cc2)nc2sc3c(c2c1=O)CCN(C)C3	99*	8.3	·	-5	4	1.5	0.72	1.7	i
S=C(NCc1ccccc1)N1CCN(C(=S)NCc2ccccc2)CC1	0	1.4	·	24	17	4.7	0.74	-0.3	i
COc1ccc(/C=C2\SC(=Nc3ccccc3Cl)NC2=O)c(OC)c1	·	0.1	5%	5	-10	11	·	5.1	i
C[C@H](NC(=O)C(c1ccccc1)c1ccccc1)c1ccccc1	-18	-1.1	-14%	1	-20	0.7	0.66	3.7	i
COc1ccccc1CNS(=O)(=O)c1ccc2c(c1)NC(=O)C(C)S2 (centres undefined)	5	-4.2	-4%	0	-4	2.1	0.7	1.1	i
CC(C)C[C@H]1CNC(=S)N1CC1CCN(CC2CCCC2)CC1	·	0.2	-5%	10	7	3.1	·	3.4	i
CC(NCc1nc2ccccc2n1C)C12CC3CC(CC(C3)C1)C2 (centres undefined)	-5	5.3	·	-27	-41	-5.3	0.65	1.2	i
C[C@@H]1CCCCO[C@H](CN(C)C(=O)CCC(F)(F)F)[C@@H](C)CN([C@H](C)CO)C(=O)c2cc(N(C)C)ccc2O1	·	-6.8	·	2	4	0.1	·	·	i
CCOc1ccc(NS(=O)(=O)c2cc(C(=O)N3CCN(C(C)=O)CC3)ccc2Cl)cc1	1	0.0	·	-3	-6	0.3	0.68	3.1	i
Oc1ccccc1/C=N/NC(=S)NC1CC2CCC1C2 (centres undefined)	12	7.9	-3%	-43	-39	-8.0	·	1.9	i
CCOC(=O)C1CCN(C(=O)c2ccccc2NS(=O)(=O)c2ccc(F)c(F)c2)CC1	·	·	20%	·	·	·	0.68	1.8	·
CN1CCN(c2ccc(NC(=O)c3ccc(-c4ccc(Cl)cc4)o3)cc2)CC1	29	3.2	-3%	-2	0	0.2	0.65	-0.2	i
New compounds follow:
SMILES	ALR inh	AF4-AF9 inh	Vif TR-FRET	Ecoli rRNA inh	Ecoli rRNA inh OD600	Ecoli rRNA inh RFP	E coli growth	HNF4A DNA FP	FGF22 binding
COc1ccc(CN(C)C[C@@H]2Oc3ccc(NS(=O)(=O)c4ccccc4)cc3C(=O)N([C@@H](C)CO)C[C@H]2C)cc1	·	-1.1	·	4	-1	-1.3	·	·	i
CC(C)N(Cc1nc(-c2ccc3c(c2)OCO3)no1)CC1CCC(=O)N1 (centres undefined)	-8	-0.7	·	3	2	-4.4	0.7	-2.5	i
O=C1c2ccncc2C(=O)N1CNc1ccc(Cl)cc1	-9	-1.8	7%	15	10	-1.4	0.68	-1.8	·
CCOC(=O)C1CN(S(=O)(=O)c2ccc(C)cc2)C1	-3	·	?	·	·	·	0.72	-1.2	·
COc1ccc(CNC(=O)C/C(C)=N/NC(=O)C(c2ccccc2)c2ccccc2)cc1	-2	·	2%	·	·	·	·	5.2	·
O=C(C[C@@H]1CC[C@H]2[C@@H](COC[C@H](O)CN2C(=O)Nc2cc(Cl)cc(Cl)c2)O1)N1CCOCC1	·	-3.8	·	-28*	-18*	-2.7*	·	·	i
ClC(Cl)(c1nnnn1-c1ccccc1)c1nnnn1-c1ccccc1	21	·	6%	·	·	·	0.67	0.7	·
CCCC(=O)Nc1cc(-c2nn(C)c(=O)c3ccccc23)ccc1N1CCOCC1	9	·	-4%	·	·	·	0.69	-0.8	·
Cc1c(/C(O)=C2/C(=O)C(=O)N(CCN3CCOCC3)C2c2ccccn2)cnn1-c1ccccc1 (centres undefined)	-16	-1.7	·	16	8	3.8	0.66	0.3	i
COc1ccc2c3c(n(C)c2c1)[C@H](CO)N(Cc1ccccc1)CC31CCN(C(=O)C2CC2)CC1	·	2.0	·	7	-11	-1.0	·	·	i

Quoted at random: four entries already listed
SMILES	ALR inh	AF4-AF9 inh	Vif TR-FRET	Ecoli rRNA inh	Ecoli rRNA inh OD600	Ecoli rRNA inh RFP	E coli growth	HNF4A DNA FP	FGF22 binding
CC(C)N(Cc1nc(-c2ccc3c(c2)OCO3)no1)CC1CCC(=O)N1 (centres undefined)	-8	-0.7	·	3	2	-4.4	0.7	-2.5	i
O=C(C[C@@H]1CC[C@H]2[C@@H](COC[C@H](O)CN2C(=O)Nc2cc(Cl)cc(Cl)c2)O1)N1CCOCC1	·	-3.8	·	-28*	-18*	-2.7*	·	·	i
Cc1c(/C(O)=C2/C(=O)C(=O)N(CCN3CCOCC3)C2c2ccccn2)cnn1-c1ccccc1 (centres undefined)	-16	-1.7	·	16	8	3.8	0.66	0.3	i
O=C1c2ccncc2C(=O)N1CNc1ccc(Cl)cc1	-9	-1.8	7%	15	10	-1.4	0.68	-1.8	·

3 compounds from above, reduced to Vif TR-FRET.
SMILES	Vif TR-FRET
COC(=O)c1ccc(-c2noc(CN3C[C@H]4CC[C@H]3C4)n2)cc1	4%
CCn1c(CSc2nncn2-c2ccc(OC)cc2)nc2cc(S(=O)(=O)N(C)C)ccc21	5%
Cc1ccc(-c2n[nH]c(S(C)(=O)=O)c2C#N)cc1	-12%
